High-throughput results from PubChem.
S aureus helic: inhibitors of S. aureus replicative helicase, primary screen, biochemical, fluorescence unwinding readout. replicative DNA helicase (DnaC/DnaB), Staphylococcus aureus. purified S. aureus helicase, fluorescence unwinding assay; about half of the hits fall short of the stated cut. inhibition, %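 (tested at about 80 µM)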. 120,000 tested, 0.05% active;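 active = both duplicates at 50% or more, or one of them with a favoured structure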;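 note: 0% = mean of negative control wells and 100% = mean of positive control wells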
MgrA-DNA mod: S. aureus MgrA activity modulators, primary screen, biochemical, S. aureus Newman, fluorescence polarization; MgrA-DNA binding; 84,000 tested, 0.13% active; inhibition, %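 (about 10 µg/mL by stock and volumes)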;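 active = above 50% in either of two replicates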;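 note: 0% = protein plus DNA without compound and 100% = DNA alone without protein; higher means less MgrA bound to DNA so lower polarization; one replicate is shown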
* marks the source's active call; other numbers are inactive results; x = no result given. The list is partial (hit frequency here may not be typical).

S aureus helic | MgrA-DNA mod | SMILES
x | -0.9 | Cc1c(NC(=O)c2cc3n(n2)C(C(F)(F)F)CC(c2ccc(Cl)c(Cl)c2)N3)c(=O)n(-c2ccccc2)n1C (centres undefined)
11 | 2.9 | Cc1cc(NN)nc2ccccc12
x | 0.6 | CCOc1ccc(-c2cc(C(=O)Nc3ccc(S(=O)(=O)NC(C)=O)cc3)c3ccccc3n2)cc1
-4 | 3.4 | O=C(CCC(=O)Nc1ccccc1)Nc1ccccc1
-10 | x | O=C(CSc1ncnc2ccccc12)c1ccc[nH]1
x | -0.4 | CC(C)(C)OC(=O)N1CCN(C(=O)Nc2ccc(OC(F)(F)F)cc2)CC1
7 | x | COc1ccc(NC(=O)OCC(F)(F)C(F)F)cc1
-9 | -0.1 | C=CCNC(=O)c1ccc(NS(=O)(=O)CC)cc1

Whole records, looked up by structure. Order of screens: S aureus helic, MgrA-DNA mod
Record of O=C(CCC(=O)Nc1ccccc1)Nc1ccccc1 : -4, 3.4
Record of Cc1cc(NN)nc2ccccc12 : 11, 2.9

Later entries
S aureus helic | MgrA-DNA mod | SMILES
4 | x | CCOc1ccccc1C(=O)NC(C(=O)NCc1ccco1)C(C)C (centres undefined)
-14 | -3.3 | O=C(O)COc1ccc2c(c1)CCC2
-2 | 3.8 | O=C(N/N=C/c1ccc(O)cc1)Nc1cccc2nsnc12
9 | x | O=C(O)C(Cc1c[nH]c2ccccc12)N1C(=O)c2ccccc2C1=O (centres undefined)
-8 | x | O=C(c1cccnc1Cl)N1N=C2/C(=C/c3ccco3)CCCC2C1c1ccco1 (centres undefined)
9 | x | O=C(c1ccc2c(c1)N(Cc1ccccc1)C(=O)CS2)N1CCC2(CC1)OCCO2
18 | x | COc1cccc2c1cc1c(=O)n(CC(=O)NCCc3ccc(S(N)(=O)=O)cc3)nc(C)n12
-1 | -0.6 | CC1=CC(C)(C)N2C(=O)C3(OCCO3)c3cc(C)cc1c32
0 | x | Nc1ccc(OCC(=O)O)cc1
-11 | 20 | CC(=O)n1c(=O)sc2ccccc21
9 | -1.6 | O=C(O)c1snc2c(=O)[nH]cnc12
-8 | x | Cc1c(C(=O)OCC2=NC3SC4=C(CCCC4)C3C(=O)N2)oc2ccccc12 (centres undefined)
11 | x | CCOc1cccc(/C=N/N2C(C)CCCC2C)c1O (centres undefined)
9 | x | COc1ccc(-c2nc(SC(CC(=O)NCCN3CCOCC3)c3ccc(OC)cc3)n[nH]2)cc1 (centres undefined)
9 | 1.4 | CCN(CC)S(=O)(=O)c1ccc(NC(=O)c2ccccc2Cl)cc1
-1 | x | CCNCc1ccc(OCC)c(OC)c1
10 | 4.7 | O=C(CSC1=NC(=O)C(Cc2ccccc2)C(=O)N1)NCc1ccccc1 (centres undefined)
5 | -0.5 | CN(Cc1ccccc1)C(=O)CN(C)S(=O)(=O)c1ccc2c(c1)C(C)(C)C(=O)N2C
x | -0.8 | CC[n+]1c(C)csc1Nc1c(C)cccc1C
10 | 1.7 | N#Cc1cc2c(nc1SCC(=O)N1CCOCC1)CCC2
-12 | x | CC(C)Cc1ccc(C(=O)C(C)N2CCN(c3ccc(C(F)(F)F)cn3)CC2)cc1 (centres undefined)
-7 | 1.2 | N#Cc1nc(-c2ccccc2)cc(-c2ccccc2)n1
11 | 1.9 | O=C(NC1CCCCCC1)c1ccc2c(c1)OCO2
10 | x | COc1ccccc1-c1cc(=O)[nH]c2c1CCCC2
x | -1.1 | CC(C)(C)c1cc(C(=O)NCc2ccc(C#N)cc2)n(Cc2ccccc2)n1
5 | -0.5 | O=C(O)/C=C/C(=O)NC1CCCCC1NC(=O)/C=C/C(=O)O (centres undefined)
-36 | x | COc1ccc2c(c1)n1nnnc1c1nnnn21
-5 | x | COc1cc2c(cc1OC)C(C(=O)N1CCCCCC1)C1c3ccccc3CCN1C2=O (centres undefined)
-13 | -3.3 | O=C(/C=C/c1ccccc1)OCC1COc2ccccc2O1 (centres undefined)
-19 | -1.8 | O=C(NCc1nc2ccccc2n1Cc1ccccc1)c1ccco1
11 | 1.2 | COc1ccc2[nH]c3c(c2c1)CCNC3C1CC=C(C)CC1 (centres undefined)
x | 5.0 | C[N+]1(C)C[C@@H](O)C[C@H]1C(=O)[O-]
x | -0.8 | CC(C)(C)SCC(=O)c1ccc2c(c1)CCC(=O)N2
6 | -3.2 | O=C(Nc1ccc(O)cc1)c1c(O)c2ccccc2[nH]c1=O
12 | 5.2 | O=S(=O)(Nc1ccc2ccccc2c1)c1cccs1
-15 | x | CC(Oc1ccccc1)C(=O)NCCSc1c[nH]c2ccccc12 (centres undefined)
6 | x | O=C(CC1CCCC1)Nc1c(C(=O)Nc2ccccc2)oc2ccccc12
-8 | x | CC12C=CC(=O)C1(C)C(=O)C=C2 (centres undefined)
2 | 1.2 | CCOC(=O)c1c(C)oc2c1c1c(c3ccccc32)OCN(C2CCCC2)C1
3 | -3.2 | COC(=O)CSc1nc(C)nc2c1oc1ccccc12

Structural class, those above with a CF3 group.
S aureus helic | MgrA-DNA mod | SMILES
x | -0.9 | Cc1c(NC(=O)c2cc3n(n2)C(C(F)(F)F)CC(c2ccc(Cl)c(Cl)c2)N3)c(=O)n(-c2ccccc2)n1C (centres undefined)
x | -0.4 | CC(C)(C)OC(=O)N1CCN(C(=O)Nc2ccc(OC(F)(F)F)cc2)CC1
-12 | x | CC(C)Cc1ccc(C(=O)C(C)N2CCN(c3ccc(C(F)(F)F)cn3)CC2)cc1 (centres undefined)

Carrying on.
S aureus helic | MgrA-DNA mod | SMILES
10 | x | CCOc1cc(/C=N/NC(=O)c2ccc(CSc3nncn3C)cc2)ccc1OCC(=O)N1CCOCC1
-14 | x | CSCCC(=O)Nc1ccccc1I
1 | 1.3 | CSc1nc2ccccc2n1CN(C)Cc1ccccc1
x | 2.0 | CCOC(=O)C1=C(C)N=c2s/c(=C\c3cc(Br)c(O)c(OC)c3)c(=O)n2C1c1ccc2c(c1)OCO2 (centres undefined)
8 | -0.2 | Cc1nc2c(c(C)nn2C)c(C)c1CCC(=O)N1CCC(C)CC1
x | -1.5 | FC(F)(F)c1ccccc1-c1ncc(-c2ccccc2)o1
-12 | x | COc1ccc(S(=O)(=O)N2CCN(C(=O)C(C)Oc3ccc(F)cc3)CC2)cc1 (centres undefined)
-8 | x | Cc1ccc(Cl)cc1-n1c(=O)cc(N2CCN(C(=O)c3ccco3)CC2)[nH]c1=O
9 | x | CCN(c1cccc(C)c1)S(=O)(=O)c1cc2c3c(c1)CCN3C(=O)CC2
10 | x | COc1cc2cc(C(=O)c3ccccc3O)cnc2cc1OC
4 | x | CCc1ccc(-c2cc(C)no2)cc1S(=O)(=O)N1CCN(c2ccccc2OC)CC1
8 | 3.5 | Cc1sc2c(c1C)C(=O)NC(c1cccc(O)c1)N2 (centres undefined)
-26 | x | CC(C(=O)Nc1ccc(S(N)(=O)=O)cc1)N1C(=O)C2C3C=CC(C3)C2C1=O (centres undefined)
-2 | -0.5 | Cc1cc(Nc2cccc(C(F)(F)F)c2)nc2ccc(NC(=O)C3COc4ccccc4O3)cc12 (centres undefined)
-5 | x | COc1ccc(CN(C(C)=O)c2ccccc2C(=O)O)cc1
-8 | x | O=C(O)C1CCN(S(=O)(=O)c2cccs2)CC1
9 | x | COc1ccc(OC)c(-c2cc(C(=O)N3CCN(c4ncccn4)CC3)c3ccccc3n2)c1
-4 | -0.5 | CCc1ccc(N2CCN(C(=O)c3ccc4c(c3)OCO4)CC2)cc1
x | -2.1 | c1nc(N2CCOCC2)c2sccc2n1
-9 | -1.8 | Cc1ccn2cc(-c3ccc(F)cc3)nc2c1
10 | x | Cc1nn(Cc2ccccc2Cl)c(Cl)c1C(=O)OC1CCOC1=O (centres undefined)
-10 | 0.2 | N#Cc1ccc(OCC(=O)NCCCc2ccccc2)cc1
-7 | -0.2 | COc1ccc2c(c1)C1C=CCC1C(c1cc3c(cc1Br)OCO3)N2 (centres undefined)
9 | 2.1 | Cc1cccc(N2CCN(CCNC(=O)c3ccc4nc(N5CCOCC5)sc4c3)CC2)c1C
8 | x | COc1ccccc1N(C(=O)CN1C(=O)C2C3C=CC(C3)C2C1=O)C1=NCCCS1 (centres undefined)
-1 | -0.6 | CN1CCN(C(=O)c2ccc(C3SCC(=O)N3Cc3ccco3)cc2)CC1 (centres undefined)
x | -0.6 | Cc1nn(-c2ccccc2)nc1CNC(=O)c1cc(F)cc2c1OCOC2
9 | 0.9 | CCN1C(=O)N/C(=C/c2ccc(Sc3ccc(C)cc3)o2)C1=O
19 | x | CC(=O)Nc1ccccc1-c1nc2ccccc2nc1OCC(=O)c1ccc(Cl)cc1
2 | -0.7 | COc1ccccc1C1CC(C(F)(F)F)n2ncc(C(=O)O)c2N1 (centres undefined)
1 | 1.8 | C=C1c2cc(CC)ccc2NC(=O)N1c1ccccc1
-4 | -0.6 | Cc1ccc(-c2cc3nc(-c4ccccc4)cc(N)n3n2)cc1
x | -9.2 | O=C(O)[C@H](O)c1ccccc1
-12 | x | CCc1ccc2ncc(S(=O)(=O)c3ccccc3)c(N3CCOCC3)c2c1
3 | x | COc1ccc(C=Nc2ccccc2)cc1
-3 | -0.5 | Fc1ccc(CSc2nnc(SCc3ccccc3)s2)cc1
-7 | x | c1nc(SCc2ccon2)c2c3c(sc2n1)CCC3
13 | 3.2 | O=C(NN1CCOCC1)c1cccc(COc2cccc(Br)c2)c1
-13 | x | CC(C)Oc1ccc(CNC(=O)CCS(=O)(=O)c2ccc3c(c2)CC(=O)N3C)cc1
10 | x | CC(C)(C)C(N)=O

Retrieved one by one from the entries so far (6):
S aureus helic | MgrA-DNA mod | SMILES
-5 | x | COc1cc2c(cc1OC)C(C(=O)N1CCCCCC1)C1c3ccccc3CCN1C2=O (centres undefined)
10 | x | CCOc1cc(/C=N/NC(=O)c2ccc(CSc3nncn3C)cc2)ccc1OCC(=O)N1CCOCC1
-14 | x | CSCCC(=O)Nc1ccccc1I
9 | 1.4 | CCN(CC)S(=O)(=O)c1ccc(NC(=O)c2ccccc2Cl)cc1
-9 | -1.8 | Cc1ccn2cc(-c3ccc(F)cc3)nc2c1
6 | x | O=C(CC1CCCC1)Nc1c(C(=O)Nc2ccccc2)oc2ccccc12

Following part.
S aureus helic | MgrA-DNA mod | SMILES
25 | x | C/C(Cn1c(=O)oc2ccccc21)=N\OC(=O)Nc1ccccc1
x | 3.5 | COC(=O)c1sccc1N/N=C(\C#N)C(=O)c1ccco1
-22 | x | CCNc1nc(-c2ccc(Br)cc2)cs1
x | -5.0 | c1cnc2nc(-c3ccc4c(c3)OCCO4)cn2c1
x | -1.0 | Oc1cccc2ccc(N3CCOCCOCCN(c4ccc5cccc(O)c5n4)CCOCCOCC3)nc12
-18 | x | O=C(NCCCN1CCCC1)c1csc2c1CCCC2
x | 3.9 | Clc1ccc(CN2COc3c(cc(Cl)c4cccnc34)C2)cc1
x | -0.9 | CC(=O)OC(C(=O)O)C(OC(C)=O)C(=O)Nc1ccc(Cl)cc1 (centres undefined)
x | 3.2 | FC(F)(F)c1ccnc(NCCNc2ncccc2C(F)(F)F)n1
x | 4.9 | O=C(Nc1ccc2[nH]ccc2c1)c1ccc(F)cc1
x | -0.3 | CSC(=S)Nc1ccc(NC(C)=O)cc1
-2 | x | O=C(COc1ccc(Br)cc1)NCCCN1CCCC1=O
-23 | x | CC(C)(C)n1nc(-c2ccc(Cl)cc2)c(C#N)c1N
8 | 1.5 | Brc1cc2c(cc1CSc1nc3ncccc3[nH]1)OCO2
10 | -10 | Cc1ccc(-c2nn(-c3ccccc3)cc2CSC(=N)N)cc1
7 | x | O=C(NCC1COc2ccccc2O1)C12CC3CC(CC(O)(C3)C1)C2 (centres undefined)
-5 | x | Cc1noc(C)c1CSCC(=O)OCc1nnc(-c2ccccc2Br)o1
6 | -4.2 | c1ccn(-c2ccc(N3CCOCC3)cc2)c1
-8 | 7.5 | CCOc1ccc(C(=O)NC2CC2)c(OCC)c1
6 | -2.0 | O=C1/C(=C/c2cccc3c2OCO3)CCC/C1=C\c1cccc2c1OCO2
-12 | x | CCc1ccc2c(CN3CC(C)OC(C)C3)cc(=O)oc2c1 (centres undefined)
x | 0.4 | CC(C)(C)c1cc(-c2nc(-c3ccccn3)no2)n(Cc2ccccc2)n1
-3 | x | CCn1c(C)c(C)c2cc(C(=O)NC3CCCC3)ccc21
5 | -1.8 | CCC(Oc1ccccc1Cl)C(=O)O (centres undefined)
19 | 4.1 | CCSc1nnc2n(-c3ccccc3)c3ccccc3n12
x | -1.4 | COc1ccc(OC(=O)c2ccc3nonc3c2)cc1
-2 | -1.4 | O=C(CC12CC3CC(CC(Br)(C3)C1)C2)NCC1CCCO1 (centres undefined)
1 | x | CCOC(=O)Cn1c(=O)n(Cc2ccco2)c2ncccc21
-9 | x | CC(C(=O)NC1CCCc2ccccc21)N1CCN(c2ccc(F)cc2)CC1 (centres undefined)
-11 | 1.3 | COc1ccc(OCC(O)CNC(=O)c2ccccc2C(=O)O)cc1 (centres undefined)
-9 | x | COc1cccc(Oc2ccc(C(F)(F)F)cc2NC(=O)CSCC(=O)Nc2cc(C)on2)c1
x | -1.2 | CCN(CC)C(=O)Nc1ccc(OC)cc1
21 | x | CC1CCCN(c2nnc(NC(=O)NCc3ccccc3)s2)C1 (centres undefined)
8 | x | CCCC(=O)Nc1ccccc1-c1nc2ccccc2[nH]1
-9 | x | Cc1nn(Cc2ccc(Cl)cc2)c(C)c1S(=O)(=O)N(C)C
-32 | x | CC(=O)N1CCc2cc(S(=O)(=O)NCCC(=O)Nc3nc4ccc(C)cc4s3)ccc21
-1 | x | CCN(CC)c1ccc(NC(=S)NC(C)C)cc1
